# Source: PubChem
# VDR inh = vitamin D3 receptor (human) inhibition; AID 504847; Potency, µM, inactives show max response, negative = inhibition, usual class: inhibitors; 0.93% of 400,000 active; VDR-SRC2-3 peptide fluorescence polarization, 2 h; active means well fitted inhibition curve with a large enough effect; inconclusive means small, poorly fitted or top-dose-only effect, or another doubt; inactive means no such curve, though single readings can be large or run the other way; further: series mostly up to about 120 µM
# Target sequence (P11473 whole entry, looked up): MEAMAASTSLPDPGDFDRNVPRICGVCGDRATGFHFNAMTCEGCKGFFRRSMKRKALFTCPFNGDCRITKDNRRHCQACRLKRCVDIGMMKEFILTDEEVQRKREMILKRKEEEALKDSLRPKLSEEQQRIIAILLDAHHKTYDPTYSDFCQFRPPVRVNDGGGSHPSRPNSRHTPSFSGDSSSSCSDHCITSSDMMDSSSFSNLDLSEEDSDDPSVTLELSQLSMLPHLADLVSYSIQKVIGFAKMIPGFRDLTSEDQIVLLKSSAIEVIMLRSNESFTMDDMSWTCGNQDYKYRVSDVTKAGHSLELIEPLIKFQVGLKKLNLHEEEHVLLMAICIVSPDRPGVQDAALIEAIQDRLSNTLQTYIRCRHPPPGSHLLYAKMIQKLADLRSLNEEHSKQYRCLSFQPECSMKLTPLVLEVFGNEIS
#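 After 23 nl compound addition and a short centrifugation, plates sat for 2 hours at ambient temperature; polarization of fluorescence then indicated loss of VDR binding to peptide SRC2-3.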
# An asterisk follows results filed as active; ? = inconclusive; & = joins results of further samples. On the % scale 0 is the no-effect control and ±100 the full control effect; potency means the concentration at half of the fitted maximal effect. An excerpt, so the mix of outcomes need not match the whole.
smiles,VDR inh
CCCOc1ccc(C2=NC(c3ccc(F)cc3)=Nc3ccc(OC)cc3N2)cc1,0%
COc1ccccc1-n1cnnc1SC(C)C(=O)Nc1cccc([N+](=O)[O-])c1 (stereo unspecified),-17%
O=C(NNC(=S)NC(=O)c1ccccc1[N+](=O)[O-])c1ccccc1,4%
C1=C(c2ccccc2)N2CCN=C2S1,-4%
Cn1ccnc1Sc1cc(NCCCO)c([N+](=O)[O-])c2nonc12,20µM*
Cc1ccc(NC(=O)CSc2nnc(Cc3ccccc3)c(=O)[nH]2)c(C)c1,-7%
Cc1c2cnn(CC(=O)NCCN3CCOCC3)c(=O)c2c(C)n1Cc1ccccc1F,-5%
CCn1nnc2cc(C(=O)Nc3cccc(C(F)(F)F)c3)ccc21,11%
Cc1ccccc1N=C1NC(=O)/C(=C/c2cccnc2)S1,-23%
CCC(CC)C(=O)NCCc1ccc(S(N)(=O)=O)cc1,-19%
CCCCc1nnc(NC(=O)c2nc3nccc(C)n3n2)s1,-5%
Cc1nnc(NC(=O)CSc2nnc(CNC(=O)c3ccccc3)n2-c2ccccc2)s1,-14%
O=C(NC(C(=O)N/N=C/c1ccccn1)c1n[nH]c(=O)c2ccccc12)c1ccccc1 (stereo unspecified),10%
CCOC(=O)C1CCN(c2c(NCCN(CC)c3ccccc3)c(=O)c2=O)CC1,-7%
Cc1ccc(OCCCCn2c(CCNC(=O)C(C)(C)C)nc3ccccc32)cc1,12%
c1ccc(C2CNCc3c2ccc2ccccc32)cc1 (stereo unspecified),-16%
CC1=C(C(=O)Nc2cccnc2)C(c2ccc3c(c2)OCO3)C2=C(CCCC2=O)N1 (stereo unspecified),1%
CCCCC(=O)NS(=O)(=O)c1ccc(N=NN2CCOCC2)cc1,-7%
CCCC(=O)Nc1cc(C)c2c(=O)oc3ccccc3c2n1,-4%
COc1cc(OC)cc(C(=O)NCC(=O)N2CCCCCCC2)c1,-24%
COc1ccc(CN2CCNC(=O)C2CC(=O)NC2CCCCCCC2)cc1C (stereo unspecified),11%
CC(=O)Nc1ccc(SC(C)C(=O)NC(N)=O)cc1 (stereo unspecified),-20%
CC(C)(C)C(=O)C[n+]1ccc(C(N)=O)cc1,-18%
CCOc1ccc(C2NC(=O)NC(c3ccccc3)=C2C(C)=O)cc1OC (stereo unspecified),-5%
CCc1cc2c(cc3c(=O)n(CCCC(=O)NCc4cccc(Cl)c4)ncn32)s1,14%
CC(C)CN(C(=O)CCC(=O)OCC(=O)c1ccc(F)c(F)c1)c1c(N)n(CC(C)C)c(=O)[nH]c1=O,-7%
Cc1ccc(CSc2nnc(SCC(=O)N/N=C/c3c[nH]c4ccccc34)s2)cc1,-2%
COc1cc(C(=O)NC(C)C2CC3CCC2C3)cc(OC)c1OC (stereo unspecified),-20%
CC1(c2nnc(-c3ccccc3)o2)CC(c2ccc(Cl)cc2)=NO1 (stereo unspecified),-15%
Cc1ccn2c(Nc3ccc(C(C)C)cc3)c(-c3cccnc3)nc2c1,-14%
Cc1cccc(-c2noc(CNC(=O)c3ccccc3Br)n2)c1,22%
O=C(Cc1csc(-c2ccc(F)cc2)n1)Nc1cccc(S(=O)(=O)NC2=NCCC2)c1,-2%
CO/N=C\CC(=O)Nc1ccc(Oc2ccccc2)cc1,0%
CCC(Sc1nc2ncccc2[nH]1)C(=O)Nc1ccccc1F (stereo unspecified),3%
CN(CC(=O)Nc1ccc(N2CCOCC2)cc1)C(=O)c1cccc(Cl)c1Cl,-1%
O=c1[nH]ccc2c(S(=O)(=O)N3CCCNCC3)cccc12,-5%&4%
O=C(O)CCC(=O)N1CCN(c2nc(-c3ccccc3)c3ccccc3n2)CC1,-8%
COc1ccc(CCNC(=O)Cc2ccc(OCc3ccccc3)c(OC)c2[N+](=O)[O-])cc1OCc1ccccc1,10%
Cc1nc2c(=O)[nH]c3ccccc3c2o1,0%
COc1cccc(OCC(=O)NNC(=O)C(=O)N2CCCC2)c1,-8%
CCOC(=O)c1nc2ccccc2c(=O)[nH]1,14%
CC(C)CCNC(=O)C1CCC(CNS(=O)(=O)c2ccc(Cl)cc2)CC1 (stereo unspecified),1%
O/N=C/c1cn(-c2ccccc2)nc1-c1cccnc1,2%
COc1cc(OC)cc(C(=O)NCCCN2CCN(CCCNC(=O)c3cc(OC)cc(OC)c3)CC2)c1,-30%
Cc1cc(C)c(OCCN2CCOCC2)c(Cl)c1,-9%
CN(C)CC(C)(C)NS(=O)(=O)c1ccc(Cl)cc1,-2%
CCN(CC)P(=O)(Nc1ccc(SC(F)F)cc1)c1ccc(N(C)C)cc1NC(=O)c1ccco1 (stereo unspecified),17%
CCOc1cc(C2C3=C(CC(C)(C)CC3=O)Nc3n[nH]c(C)c32)ccc1O (stereo unspecified),9%
C=CCNC(=S)/C(=C(\[O-])c1ccc(Cl)cc1)[n+]1ccccc1,-1%
CCCCCCCNC(=O)C1(CC2CC(c3ccc(Cl)cc3)=NO2)CCNCC1 (stereo unspecified),-6%
COc1ccc(C(C)(C)C)cc1NC(=O)CNc1cccc2ccccc12,-12%
COCC(=O)NCc1nc2cccnc2n1Cc1ccc(F)cc1,9%
CC[C@]12C(=O)N(C)C[C@H]([C@@H]3C(=O)N(C)C(=O)[C@@H]31)N2C(=O)c1ccc(Cl)cc1,1%
COc1ccc(N2CCN(C(=O)c3cc4c(=O)n(Cc5ccco5)ccc4nc3C)CC2)cc1,-5%
O=C(CSc1ncn[nH]1)N1CCN(S(=O)(=O)c2ccc(Cl)cc2)CC1,0%
Brc1cnc(OCc2ccccc2)nc1OCc1ccccc1,8%
CCOc1ccccc1/C=C(/NC(=O)c1ccccc1)C(=O)NC(C)c1ccccc1 (stereo unspecified),-15%
COc1ccccc1CCc1nnc(CCC(=O)NC(C)Cc2cccs2)o1 (stereo unspecified),11%
COc1cc2c(c(OC)c1OC)-c1c(cc3c(c1O)OCO3)C[C@@H](C)[C@@H](C)C2,-12%
O=C(COc1ccc(Cl)cc1)Nc1ccc(Cl)cn1,9%

# Further structures follow.
smiles,VDR inh
CCc1nnc(NS(=O)(=O)c2ccc(NC(=O)c3cccc(OC(F)(F)C(F)F)c3)cc2)s1,3%
Cc1cccc2c(CC(=O)O)noc12,-6%
CC(C)CC(=O)N1CCN(Cc2ccc(Cl)cc2)CC1,-12%
Cc1cc(C(=O)NC2CCCCCCC2)ccc1[N+](=O)[O-],-4%
Cc1ccc(S(=O)(=O)N2CCOCC2)cc1C(=O)Nc1ccc(N2CCCCCC2)cc1,-6%
CCOC(=O)CCCc1ccc(/C(C)=N/NC(N)=S)cc1,?
COc1ccc(N2CCN(C(=O)c3cc4c(s3)-c3c(C)cccc3OC4)CC2)cc1,-9%
Cc1cc(C)c(NC(=O)c2ccc(CN3CCc4ccccc4C3)cc2)c(C)c1,-6%
CCCCCCn1c(SCCCC)nc2c1c(=O)[nH]c(=O)n2C,7%
Cc1nn2cnnc2c(C)c1Cc1ccc(Cl)cc1,-26%
C[C@]12CCC(O)CC1=CCC1C2CC[C@]2(C)/C(=N\NC(N)=S)CCC12 (stereo partly specified),2%
Cc1cccc(OCC(=O)NC(=S)Nc2ccc(S(=O)(=O)NC3CCCCC3)cc2)c1,10%
CCCCN(C(=O)c1cccc(-n2cccc2)c1)c1c(N)n(CCCC)c(=O)[nH]c1=O,8%
Cc1cc(SCC(=O)N/N=C/c2ccc(O)c(O)c2)nc2ccccc12,-15%
O=c1ccc(-c2ccc(S(=O)(=O)Nc3cccc([N+](=O)[O-])c3)s2)n[nH]1,8%
CNC(=O)c1cc(C(=O)c2ccc(C(F)(F)F)cc2F)c[nH]1,-5%
COc1ccc(NC(=O)N(C)C[C@H]2Oc3ccc(NC(=O)Cc4ccccc4)cc3CC(=O)N([C@H](C)CO)C[C@H]2C)cc1,?
Cc1ccc(CSCc2ccc(C(=O)NCCC(C)C)o2)cc1,-2%
Cc1[nH]c(N=Nc2ccccc2)nc1N=Nc1ccccc1,-1%
C[C@H](Cn1cnc2c(N)ncnc21)OCP(=O)(O)O,8%
CCOc1ccc(N2C(=O)CN(c3cccc4ccccc34)C2=S)cc1,5%
O=C(c1ccc(-c2ccc([N+](=O)[O-])cc2)o1)N1CCN(S(=O)(=O)c2cccs2)CC1,-2%
Cc1cnc(C(=O)OCC(=O)Nc2ccc(C)c(S(=O)(=O)N(C)C)c2)cn1,-5%
CCN(c1ccc(NC(=O)COC(=O)c2ccc(C)s2)cc1)C(C)C,17%
CCC(C)OC(=O)n1ccc(C(=O)Nc2nccs2)n1 (stereo unspecified),-5%
C/C(=N\NC(=O)C(N)=O)c1ccc(NC(=O)c2cccs2)cc1,6%
COC(=O)N1CCC2(CCCN(c3ccccn3)C2)CC1,-6%
O=C(N/N=C/c1cccc(O)c1)N/N=C/c1cccc(O)c1,-9%
Cc1ccc(-c2oc3ncnc(N)c3c2-c2ccc(C)cc2)cc1,12%
CC1(C)CC(=O)C2=C(C1)OC1=C(C(=O)CC(C)(C)C1)C2c1cc([N+](=O)[O-])cc([N+](=O)[O-])c1O,?

# The list goes on; the last 7 above are carried over.
compound	VDR inh
CCN(c1ccc(NC(=O)COC(=O)c2ccc(C)s2)cc1)C(C)C	17%
CCC(C)OC(=O)n1ccc(C(=O)Nc2nccs2)n1 (stereo unspecified)	-5%
C/C(=N\NC(=O)C(N)=O)c1ccc(NC(=O)c2cccs2)cc1	6%
COC(=O)N1CCC2(CCCN(c3ccccn3)C2)CC1	-6%
O=C(N/N=C/c1cccc(O)c1)N/N=C/c1cccc(O)c1	-9%
Cc1ccc(-c2oc3ncnc(N)c3c2-c2ccc(C)cc2)cc1	12%
CC1(C)CC(=O)C2=C(C1)OC1=C(C(=O)CC(C)(C)C1)C2c1cc([N+](=O)[O-])cc([N+](=O)[O-])c1O	?
COc1ccc(NC(=O)C(NC(=O)c2ccc(=O)[nH]c2)c2ccc(C)cc2)cc1 (stereo unspecified)	-15%
CC(C)Sc1nc2ncnc(N)c2[nH]1	-11%
O=C(O)CNc1ccccc1C(=O)O	-8%
COc1ccc(OC)c(S(=O)(=O)N(C)CC(=O)Nc2ccc3c(c2)OCO3)c1	20%
CCOc1ccccc1NC(=S)N1CCN(c2cccc(OC)c2)CC1	-11%
O=C(c1ccc(O)c(Cl)c1)N1CCN(S(=O)(=O)c2ccccc2)CC1	8%
O=C(c1ccco1)N1CCC(c2nc3c(nnn3Cc3c(Cl)cccc3Cl)c(=O)[nH]2)CC1	-12%
Cc1ccc(Cn2cc(S(=O)(=O)c3ccccc3)c(=O)c3cc(F)c(N4CCOCC4)cc32)cc1	11%
Cc1cc(C)cc(N(C(=O)c2snc(C(N)=O)c2N)C(C(=O)NCC2CCCO2)c2cccs2)c1 (stereo unspecified)	-27%
COc1ccc(S(=O)(=O)c2c(Nc3ccc(C)cc3)sc(C(=O)c3ccc4c(c3)OCO4)c2N)cc1	0%
CCS(=O)(=O)c1ccc(O)c(NC(=O)/C=C/c2ccc(Cl)cc2)c1	-1%
CC1=NN(Cc2ccccc2)C(=O)C1C(c1ccccc1)C(C#N)C#N (stereo unspecified)	?
Cc1c(NC(=O)C(C)Sc2nccn2C)c(=O)n(-c2ccccc2)n1C (stereo unspecified)	-8%
CC(C)N1CCN(CC2COc3ccccc3O2)CC1 (stereo unspecified)	-4%
Cc1ccc(C)c2nc(N3CCCC3)c(C#N)cc12	?
CC1=CCP(=O)(c2ccccc2)C1 (stereo unspecified)	17%
O=C(CNC(=O)c1ccc(Cl)cc1Cl)NCC(=O)Nc1ccccc1N1CCOCC1	4%
CC(=O)Nc1ccc(S(=O)(=O)N2CCN(c3ccccn3)CC2)cc1	11%
C=C(c1ccc(OCCO)cc1)c1ccc(OCCO)cc1	-13%
Cc1cccc(NC(=O)N(Cc2nc3ccccc3c(=O)[nH]2)C2CCCC2)c1	-13%

# The last 5 records of the part before lead into the next:
compound	VDR inh
CC1=CCP(=O)(c2ccccc2)C1 (stereo unspecified)	17%
O=C(CNC(=O)c1ccc(Cl)cc1Cl)NCC(=O)Nc1ccccc1N1CCOCC1	4%
CC(=O)Nc1ccc(S(=O)(=O)N2CCN(c3ccccn3)CC2)cc1	11%
C=C(c1ccc(OCCO)cc1)c1ccc(OCCO)cc1	-13%
Cc1cccc(NC(=O)N(Cc2nc3ccccc3c(=O)[nH]2)C2CCCC2)c1	-13%
CCCCc1cc(=O)oc2cc(OCC(=O)NC3CCN(Cc4ccccc4)CC3)ccc12	-7%
CC1CCN(C(=O)Cn2c(=O)n(CCCCCC(=O)NCc3ccccc3Cl)c(=O)c3sccc32)CC1	1%
O=C(NC(=S)Nc1ccccc1N1CCOCC1)c1ccco1	3%
COc1ccc2nc(NC(=O)c3cc(S(=O)(=O)N4CCOCC4)ccc3C)sc2c1	1%
COc1cc(C(=O)NC2CCN(CC(=O)Nc3cccc(C)c3C)CC2)cc(OC)c1OC	-20%
CCOC(=O)N1CCN(C(=O)CSCC(=O)N=c2sc3ccccc3n2C)CC1	8%
CC1=C(C(=O)Nc2ccccn2)C(c2cn(C)nc2C)C2=C(CCCC2=O)N1 (stereo unspecified)	-13%
CCCC1CC(C#N)N(N(C)C)C1=C(C#N)C#N (stereo unspecified)	-6%
CCCCOC(=O)C1C2C=C[C@]3(CN(C(C)c4ccc(OC)cc4)C(=O)[C@H]13)O2 (stereo partly specified)	11%
O=S(=O)(c1ccccc1)N1CCC2(CCCN(c3cccc(-c4ccccc4)c3)C2)CC1	-19%
COc1cc(/C=N/NC(=O)c2ccccc2O)ccc1OCC(=O)Nc1ccccc1	-16%
CC1(C)CC(=O)C(C=NCCc2ccccn2)=C(O)C1	-4%
COCCCNC(=O)Cc1coc2ccc3ccccc3c12	-7%
CC(C)(CNC(=O)Cc1ccc(Br)cc1)N1CCOCC1	-15%
